# Vaccinia Venus = inhibitors of vaccinia virus (Venus reporter). 330,000 compounds, 0.46% hits. Potency, µM (titrated, usually from 36.5 µM), inactives show at the top dose activity change, negative = inhibition, hits mostly inhibitors. Vaccinia virus Venus reporter expression, fluorescence. AID 720580; active means well fitted inhibition curve with a large enough effect; inconclusive means small, poorly fitted or top-dose-only effect; inactive means no such curve, though single readings can be large or run the other way; tested in A549 cells; further: nearly all actives have a fitted effect of over 30% in size; inactives centre near -10
# Vaccinia mCherry = vaccinia inhibition (mCherry reporter); 310,000 compounds, 0.63% hits; Potency, µM (series often up to 36.5 µM), for inactives: at the top dose activity change, negative = inhibition, most hits filed as inhibitors; Vaccinia virus mCherry reporter infection, fluorescence; about a quarter of the inactives have no number; active = well fitted inhibition curve with a large enough effect; inconclusive = small, poorly fitted or top-dose-only effect; inactive = no such curve, though single readings can be large or run the other way; tested in A549 cells; further: nearly all actives have a fitted effect of over 35% in size; inactives centre near -10
# An asterisk follows results filed as active; i = inactive; ? = inconclusive; . = no result given; [ ] = remark or other dose. On the % scale 0 is the no-effect control and ±100 the full control effect; potency means the concentration at half of the fitted maximal effect.
SMILES,Vaccinia Venus,Vaccinia mCherry
Cc1cccc(N2CCN(C(=O)C3CCN(S(=O)(=O)c4c(C)noc4/C=C/c4ccccc4F)CC3)CC2)c1C,-8%[7.34 µM],-5%[7.34 µM]
Cc1ccc(-c2ccnc3nc(-n4cccc4)nn23)o1,-8%,1%
OC(C[n+]1ccccc1Cl)c1ccccc1 (stereo unspecified),-9%,16%
O=S(=O)(c1ccccc1)[C@@]1(c2ccc(Br)cc2)C[C@@H]2ON=C(c3cccc(Br)c3)[C@@H]2C1,-19%,i
O=C(c1ccc(N2CCC(NCCCn3ncc4ccccc43)CC2)cc1)N1CCc2ccccc2C1,-18%,-25%
CC(=O)Nc1ccc2nc(SCC(=O)O)sc2c1,-7%,i[1.46 µM]
COc1cc2c(cc1OC)C(COc1ccc3c(C)cc(=O)oc3c1)N(C(=O)c1ccc(Cl)cc1)CC2 (stereo unspecified),-1%,-3%
CN(C)CC/C=C1/c2cc(F)ccc2CSc2ccc(F)cc21,-15%,-3%
Cc1cc(NC(=O)CCC(=O)N(CC(=O)NCC2CCCO2)c2ccc(F)c(Cl)c2)no1 (stereo unspecified),-7%,i
CCNC(=O)C1CCCN(C(=O)c2cccc(C#N)c2)CC1 (stereo unspecified),22%,14%
CCN1C(=O)[C@H]2[C@@H](c3ccc(C)cc3)N[C@]3(CCCN(Cc4ccc(F)cc4)C3=O)[C@H]2C1=O,-22%,-2%
C/C(CC(=O)Nc1ccc(OCc2ccccc2)cc1)=N\NC(=O)C(=O)Nc1ccc(C)c(Cl)c1,?,?
CCOC(=O)c1cccc(NC(=O)CC2C(=O)N(c3ccc(OC)cc3)C(=O)N2C2CCCC2)c1 (stereo unspecified),-17%,-16%
COc1ccc(C(=O)NNC(=O)CCC(=O)NNC(=O)c2ccc(OC)cc2)cc1,0%,i
Cc1nc2ccccc2n1C(=O)N(C)C,3%,2%
O=C(N/C(=C\c1ccccc1)C(=O)N1CCOCC1)c1ccco1,0%,-4%
Fc1ccc(CSc2ccc3nnc(-c4cccnc4)n3n2)cc1,-19%,-3%
O=c1[nH]c(=S)[nH]c(O)c1N=Nc1ccc2c(c1)OCO2,1%,-17%
CSc1cccc(NC(=S)N2CCC(N(C)C3CCCC3)CC2)c1,-22%,-12%
COc1ccc(CN2C(=O)CN(S(C)(=O)=O)CC2(C)C(=O)Nc2ccc3c(c2)OCCO3)cc1OC (stereo unspecified),-9%,-13%
Cc1sc2nc3ccc(N4CCCCC4)nn3c(=O)c2c1C,-23%,.
C/C(=C\C(=O)c1ccncc1)Nc1ccccc1O,?,.
O=C(NC(=S)Nc1cccnc1)c1cccs1,-9%,i
Cc1cccc(/C=N/N2CCN(c3ccccc3)CC2)c1,-17%,-2%
CC1c2cc3c(cc2CCN1CC(=O)Nc1ccc(S(=O)(=O)N2CCCC2)cc1)OCCCO3 (stereo unspecified),-13%,-1%
# (further entries)
SMILES,Vaccinia Venus,Vaccinia mCherry
CC(=O)NC(CC(=O)Nc1cccc(S(=O)(=O)N2CCCC2)c1)c1ccccc1 (stereo unspecified),-13%,-17%
O=C(c1ccc(S(=O)(=O)N2CCCC2)cc1)N1CCN(S(=O)(=O)c2cccc(F)c2)CC1,-5%,-11%
O=C(NC1CCCC1)C(c1ccccc1)N(Cc1cccnc1)C(=O)Cc1cccs1 (stereo unspecified),-10%,-14%
O=C(/C=N/O)NCC1CCNCC1,6%,.
CC(C)N(C(=O)[C@H]1CC(CC(=O)NCCC2=CCCCC2)C(=O)N2CCc3c([nH]c4ccccc34)[C@]12C)C(C)C (stereo partly specified),-11%,-12%
C/C=C/C(=O)OCC(=O)Nc1ccccc1Br,-7%,i
COc1ccccc1OCc1cc(C(=O)N2CCN(C)C(c3ccccc3)C2)no1 (stereo unspecified),-9%,-15%
Cc1cc(=O)oc2c3c(cc(OCC(=O)N4CCC[C@H]4C(=O)O)c12)OC(C)(C)CC3,0%,-4%
Cc1ccc(S(=O)(=O)NNC(=O)C(O)(c2ccccc2C)c2ccccc2C)cc1,-13%,-4%
COc1cccc(C(C)(O)c2nc(-c3cccc(C(C)C)c3)cs2)c1 (stereo unspecified),-24%,-2%
CCOC(=O)c1c(NC(=O)CSc2n[nH]c(N)n2)sc(CC)c1C,-29%,?
CCc1ccc(S(=O)(=O)NCCOc2cccc3cccnc23)cc1,-6%,?
O=C(CC[C@H]1O[C@@H](n2ccc(=O)[nH]c2=O)[C@H](O)[C@@H]1O)NCCc1c[nH]c2ccccc12,-8%,i
Cc1ccc2c(c1)NC(=O)C(CC(=O)Nc1ccccc1Cl)O2 (stereo unspecified),-6%,-8%
Cn1c(SCc2ccccc2F)nc2c([nH]c3ccccc32)c1=O,3%,-7%
Cc1ccc(CNC(=O)c2ccc(NS(=O)(=O)c3cccs3)cc2)cc1,-13%,i
Cc1ccc(Cn2nnc3c(=O)[nH]c(C4CCCN(C(=O)Nc5ccc(F)cc5F)C4)nc32)cc1 (stereo unspecified),-7%,-14%
CN1CCN(S(=O)(=O)c2ccc(Sc3nnc(-c4cccs4)n3-c3ccccc3)nc2)CC1,?,10µM*
CCOc1ccc(C(C)=O)cc1CSc1nc(C)cc(C)n1,-1%,-1%
Cc1cc(Cl)ccc1-c1nc(NCc2ccccc2)nc2ccsc12,7%,i
COc1ccccc1CN(C)CC(=O)Nc1ccc(Cl)cc1C(F)(F)F,-14%,i
CC(=O)Nc1ccc(NC(=O)CCCNC(=O)c2ccc(Cl)cc2)cc1,7%,-14%
O=C(Cn1ncc2c3ccccc3n(Cc3ccccc3)c2c1=O)N1CCCCCC1,-1%,-15%
CCCN(CC1CC1)C(=S)Nc1ccccc1F,-6%,i
CCOC(=O)CC(NS(=O)(=O)c1cc(-c2cc(C)no2)ccc1C)c1ccc(C)cc1 (stereo unspecified),-7%,-16%
# Next section.
SMILES,Vaccinia Venus,Vaccinia mCherry
S=c1[nH]c2cnccc2n1Cc1ccccc1,-26%,-14%
Cc1ccc(C(=O)Nc2cccc(-c3ccc(N4CCOCC4)nn3)c2)cc1,-22%,-11%
COc1ccc(/C=C/C(=O)c2c(O)n(CCC3=CCCCC3)c(=O)[nH]c2=O)cc1OC,1%,-5%
Cc1ccc(C(=O)NCC2CCCO2)cc1N1CCCC1=O (stereo unspecified),-10%,-17%
COc1ccc(OC)c(C(c2c(O)c3ccccc3oc2=O)c2c(C)n(C)n(-c3ccccc3)c2=O)c1 (stereo unspecified),-6%,-7%
CCN(CC(=O)Nc1ccc(OC)cc1)C(=O)c1ccccc1Sc1ccccc1C#N,2%,?
CC(C)C(=O)NC(=S)Nc1ccc(S(=O)(=O)N(C)C)cc1,-12%,-12%
O=C(CCCCn1c(=O)c2ccccc2n(Cc2ccccc2F)c1=O)NCc1ccccc1Cl,-17%,-27%
O=C(O)c1ccc(-n2c(=O)c3ccccc3c3ccccc3c2=O)cc1,-14%,-1%
CCCc1nc2c3ccccc3ccn2c1CC1CCCCC1,6%,i
CCCn1c(N2CCN(CC(=O)Nc3ccc4c(c3)OCCO4)CC2)nc2ccccc21,-17%,i
Cc1ccc(S(=O)(=O)c2nnn3c2nc(N2CCN(c4ccc(F)cc4)CC2)c2cc(Cl)ccc23)cc1C,-19%,-13%
CCc1ccccc1N(CC(=O)NC1CCCCC1)C(=O)CCC(=O)Nc1ccccn1,2%,-14%
O=C(Nc1ccc(F)c(Cl)c1)C1CCCCC1,-12%,5%
Cc1nc2ccccc2cc1C(=O)N(C)Cc1ccccc1,-1%,4%
CC1(c2ccccc2)NC(=O)N(CC(=O)Nc2cc(S(=O)(=O)N3CCOCC3)ccc2Cl)C1=O (stereo unspecified),-5%,i
O=S(=O)(Nc1nc2c(s1)CCCC2)c1ccc(F)cc1,-12%,-5%
CCOC(=O)C1CCCN(C(=O)c2ccc3nc(-c4cccc(OC)c4)oc3c2)C1 (stereo unspecified),-20%,-18%
O=C(Nc1ccccc1)N1N=CCC1c1ccccc1 (stereo unspecified),-4%,i
Cc1ccc(F)c(S(=O)(=O)NC(=O)C2(C)CCN2C(=O)Cc2ccsc2)c1 (stereo unspecified),-5%,1%
CCN(C(=O)c1cc2ccccc2oc1=O)c1ccccc1,-7%,-24%[1.46 µM]
Cc1nn(Cc2cccc(Oc3ccccc3)c2)c(C)c1NC(=O)NC12CC3CC(CC(C3)C1)C2,-16%,-27%
CC(C)(CNC(=O)Cc1ccc(Cl)cc1Cl)N1CCOCC1,-12%,-12%
CNc1cc(N2CCN(S(=O)(=O)N(C)C)CC2)ccc1[N+](=O)[O-],-11%,-29%
CCOC(=O)c1c(-c2ccc(-c3ccccc3)cc2)csc1NC(=O)CNCCN(C)C,?,10µM*

# Reformatted with tabs: 6 of the compounds above.
mol	Vaccinia Venus	Vaccinia mCherry
Cc1ccc(C(=O)NCC2CCCO2)cc1N1CCCC1=O (stereo unspecified)	-10%	-17%
COc1ccc(OC)c(C(c2c(O)c3ccccc3oc2=O)c2c(C)n(C)n(-c3ccccc3)c2=O)c1 (stereo unspecified)	-6%	-7%
CCN(CC(=O)Nc1ccc(OC)cc1)C(=O)c1ccccc1Sc1ccccc1C#N	2%	?
CC(C)C(=O)NC(=S)Nc1ccc(S(=O)(=O)N(C)C)cc1	-12%	-12%
O=C(CCCCn1c(=O)c2ccccc2n(Cc2ccccc2F)c1=O)NCc1ccccc1Cl	-17%	-27%
O=C(O)c1ccc(-n2c(=O)c3ccccc3c3ccccc3c2=O)cc1	-14%	-1%

# Continued:
SMILES,Vaccinia Venus,Vaccinia mCherry
O=C(c1ccc(F)cc1)N1CCC(c2nc(-c3ccc(S(=O)(=O)N4CCCC4)cc3)no2)CC1,?,?
Cc1cccnc1NC(=O)COc1ccc2c(c1)CCC2,-1%,i
O=C(CNS(=O)(=O)c1ccc(Cl)cc1)N/N=C/c1ccco1,-2%,3%
O=C(O)CSC1CC(=O)N(c2ccc(Cl)c(Cl)c2)C1=O (stereo unspecified),-10%,.
N#Cc1ccccc1COC(=O)c1cc(=O)c2ccccc2o1,-3%,-17%
NC(=O)CC(NC(=O)Cc1cccc2ccccc12)c1ccc(NCCOc2ccccc2)c([N+](=O)[O-])c1 (stereo unspecified),?,-28%
COc1cccc(O)c1CN1CCCC(C(=O)c2sccc2C)C1 (stereo unspecified),-13%,-20%
CCCCN(C(=O)c1ccc([N+](=O)[O-])o1)c1c(N)n(CC(C)C)c(=O)[nH]c1=O,-7%,-14%
COc1cccc(C(C)NC(=O)C2CCCO2)c1 (stereo unspecified),4%,8%
CCCCCCN1C[C@H](O)[C@@H](n2cc(-c3ccc(F)cc3)nn2)C[C@@H]1c1ccc(C)cc1,-8%,-12%
Cc1ccc(C(C(=O)NCC2CCCO2)N(Cc2ccccc2)C(=O)c2ccc(-c3ccccc3)[nH]2)o1 (stereo unspecified),?,?
OCC(CBr)(CBr)CBr,-16%,-1%
O=C(COc1cccc(Br)c1)N/N=C/C(=O)c1ccccc1,-8%,-12%
CCCc1c(-c2cccc(F)c2)ncn1Cc1ccccc1OC,-4%,-6%

# Profiles as entered above. Order of values: Vaccinia Venus	Vaccinia mCherry
# `CCCc1c(-c2cccc(F)c2)ncn1Cc1ccccc1OC` across the screens: -4%	-6%
# `COc1cccc(C(C)NC(=O)C2CCCO2)c1` (stereo unspecified) across the screens: 4%	8%
# `O=C(CNS(=O)(=O)c1ccc(Cl)cc1)N/N=C/c1ccco1` across the screens: -2%	3%

# 2 entries picked at random from the list so far:
SMILES,Vaccinia Venus,Vaccinia mCherry
N#Cc1ccccc1COC(=O)c1cc(=O)c2ccccc2o1,-3%,-17%
Cc1ccc(C(C(=O)NCC2CCCO2)N(Cc2ccccc2)C(=O)c2ccc(-c3ccccc3)[nH]2)o1 (stereo unspecified),?,?
